Screens as filed in PubChem.
PrP UTR inh: suppresses PrP 5' UTR mRNA reporter expression | cell-based PrP 5' UTR mRNA reporter, plate reader | inhibition, % (no concentration beside the values) | 0.35% of 340,000 active;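 active = every replicate at 50% or more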;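 note: 0 = median of the neutral control wells; tested in H4 reporter cells; numbers are from one replicate; inactives centre near -14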
ugtP null kill: kills S. aureus RN4220 lacking UgtP. S. aureus RN4220 ugtP deletion, OD600 growth, 16 h; some inactives read as strong as hits. growth inhibition, % (no concentration beside the values). 0.54% of 330,000 active;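 active = z-score under -3 and OD600 up to 0.15 on both plates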;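 note: plate controls were untreated wells for no effect and antibiotic for full effect; wells of about 80 µL received 100 nL stock; the first replicate is given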
Bead autofluor: compound fluorescence in toxin protease inhibitor counterscreen | compound autofluorescence counterscreen, microsphere flow cytometry; hits give high values | fluorescence intensity (test concentration not listed) | 3.1% of 360,000 active | AID 624483;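 active = at least 3 SD above the mean of all compounds, about 16000 in these data; inconclusive = too few beads counted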;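 note: 100 nL of 1 mM stock went into each well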
RN4220 kill: kills Staphylococcus aureus RN4220; S. aureus RN4220 growth, OD600, 16 h; inhibition, % (concentration not given with the values); 0.33% of 330,000 active; AID 1259311;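 active = z-score of -3 or lower and OD600 up to 0.18 on both plates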;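 note: plate controls were untreated cells for no effect and reference antibiotic for full effect; stock transfer was 100 nL into about 80 µL; one replicate is shown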
BJeLR lethal: kills HRASV12-expressing BJeLR cells. BJeLR (HRASV12) viability, CellTiter-Glo ATP luminescence, 48 h; reference of the scale not given here. inhibition, % (no concentration beside the values). 0.17% of 300,000 active;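 active = replicate mean above 50%; inconclusive = above 50% but judged a plate artefact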;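 note: 50 nL library stock added to about 25 µL; numbers are from one replicate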
Mtb hypoxia rep: inhibitors of hypoxia-regulated fluorescent reporter in Mycobacterium tuberculosis; M. tuberculosis hypoxia-regulated fluorescent reporter, fluorescence; fluorescence inhibition, % (concentration not given with the values); 0.1% of 300,000 active; AID 1159583;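 active = 35 to 45% if threefold the growth effect, above 45% if 1.5-fold the growth effect; inactive = the rest, general growth blockers included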;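 note: wells of about 50 µL received 100 nL stock; 0% = vehicle wells and 100% = reference inhibitor wells; whole bacteria with a GFP reporter of the hypoxia response; strong numbers were not always called active; many hits fall short of the cut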
Mtb hypoxia rep growth: further read-out of Mtb hypoxia rep, marked with its call; growth inhibition, %; measured here: M. tuberculosis growth (absorbance);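 0% = vehicle and 100% = reference antibiotic; read after six days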
* marks the source's active call; other numbers are inactive results; ? = inconclusive; nt = not tested or not shown.

Structure,PrP UTR inh,ugtP null kill,Bead autofluor,RN4220 kill,BJeLR lethal,Mtb hypoxia rep,Mtb hypoxia rep growth
CCC(=O)OCC(=O)N=c1sccn1Cc1ccccc1Cl,-8,8,5658,2.4,-2,6,9
CCOP(=O)(OCC)C(C)(C)NC(=O)c1cc([N+](=O)[O-])cc([N+](=O)[O-])c1,-14,-2,5875,-2.7,-5,5,33
CSCCC(NC(=O)c1ccc(Cl)cc1Cl)C(=O)N1CCCCCCC1 (stereo not given),-5,3,4934,3.2,nt,2,4
CCCOC(=O)C1=C(C)N(C)C(=O)NC1c1cc2c(cc1[N+](=O)[O-])OCO2 (stereo not given),-1,-7,2471,-3.3,10,-7,-6
CC(C)(C)c1ccc(-c2cc(N)n[nH]2)cc1,64*,-12,4386,3.1,3,1,9
C1CSC2(N1)C1CC3CC(C1)CC2C3 (stereo not given),-3,0,3130,1.8,7,nt,nt
O=C(CN1C(=O)CSc2ccccc21)N/N=C/c1ccco1,-7,nt,3365,nt,3,nt,nt
N#Cc1nc(-c2ccco2)oc1N1CCC(Cc2ccccc2)CC1,-17,18,?,11,2,2,6
C/C(=N\NC(=O)c1ccccc1)c1nc2ccccc2n1C,10,nt,2523,nt,9,nt,nt
O=C(Nc1cc(C(F)(F)F)ccc1N1CCCC1)C1=COCCO1,10,6,7220,-0.2,1,5,6
O=C(c1ccccc1F)N1CCC2(CC1)OCCO2,-7,-1,3788,1.1,-1,-6,13
CCC(C(=O)NCCc1ccc(C)cc1)n1nc(C)c2c(C)n(-c3ccccc3)nc2c1=O (stereo not given),8,-2,5828,0.8,4,-1,16
CCOc1ccc(C2/C(=C(/O)c3ccc(OC)cc3)C(=O)C(=O)N2c2cc(C)on2)cc1OC (stereo not given),-18,8,3152,-1.0,5,nt,nt
C=CCNC(=S)N=c1ccccn1Cc1ccccc1,nt,3,nt,0.9,nt,6,6
Fc1ccc(C2CC(c3ccccc3)n3ncnc3N2)cc1 (stereo not given),-48,-4,2643,3.1,1,nt,nt
CC(C)CCNC(=O)CCC(=O)NNc1nc2ccccc2c2nc(-c3ccccc3)nn12,-7,nt,6817,nt,-6,nt,nt
Clc1ccc(OCc2nnc(SCc3nc4ccccc4[nH]3)n2Cc2ccco2)cc1,-19,1,?,2.7,-6,12,-2
CCCCCCCNC(=O)C1(CC2CC(c3ccc(Cl)cc3)=NO2)CCN(C(=O)C2(C)CC2)CC1 (stereo not given),-6,nt,3492,nt,8,nt,nt
O=C(CSc1nnnn1C1CCCCC1)Nc1ccc2c(c1)OCO2,-5,4,13698,5.3,2,20,4
Cc1ccc(C)n1-c1ccc(C(=O)NCC2CCCO2)cc1 (stereo not given),-10,6,3924,4.1,nt,nt,nt
COc1ccc(-c2nc(SC(C)C(=O)c3c(N)n(C)c(=O)n(C)c3=O)n[nH]2)cc1 (stereo not given),-2,3,3322,8.3,nt,5,3
COc1cc(C(=O)N2CCN(c3ccccc3Cl)CC2)ccc1OCC(=O)N1CCOCC1,-10,8,8667,3.1,nt,-4,0
CCCn1c(SCC(=O)Nc2cc(S(=O)(=O)N3CCCCC3)ccc2C)n[nH]c1=O,-16,4,8675,1.6,nt,12,-1
COc1c(C=O)c(CCN(C)C(=O)c2ccc(F)cc2)cc2c1OCO2,-7,3,3236,1.3,2,18,7
Cc1ccc(S(=O)(=O)N2CCOCC2)cc1C(=O)NC1CCCCC1,-12,12,7911,5.5,2,2,5
O=C1CCC(CCc2nc3ccccc3[nH]2)(c2ccccc2)C(=O)N1 (stereo not given),-60,1,3457,0.0,nt,5,-2
Fc1ccc(-n2c(Cc3cccs3)n[nH]c2=S)cc1Cl,-16,7,4241,6.1,12,-2,6
Cc1sc(N/N=C/c2cccnc2)nc1-c1ccccc1,-19,nt,3852,nt,10,nt,nt
Cc1ccc(-c2cn(-c3ccccc3)c(SCC(=O)NC3CCS(=O)(=O)C3)n2)cc1C (stereo not given),-65,-1,2444,-0.3,3,11,7
Cc1ccnc(NS(=O)(=O)c2ccc(NC(=O)c3ccc(Br)o3)cc2)n1,-17,11,3560,0.6,nt,13,13
CCOc1ccc(NC(=O)CSc2nc3ccccc3c(=O)n2Cc2cccs2)cc1,-16,-1,7611,-5.2,16,-5,-9
CCC(C(=O)NCc1ccco1)n1nc(-c2ccc(OC)cc2)ccc1=O (stereo not given),-13,-8,3303,1.5,5,-1,7
CC(=O)c1cccc(NC(=O)CN2C(=O)COc3ccc(Cl)cc32)c1,-32,-14,6984,-3.7,0,-10,-3
O=c1c2ccccc2[nH]c(=S)n1CCN1CCC(=C(c2ccc(F)cc2)c2ccc(F)cc2)CC1,nt,-22,nt,12,8,2,3
O=C(c1cc2ccccc2o1)N1CCCC1,-11,4,3096,0.4,-4,19,31
Cc1ccc(C)c(N(C(=O)c2snc(C(N)=O)c2N)C(C(=O)NCC2CCCO2)c2cccs2)c1 (stereo not given),-24,5,4713,6.7,4,4,10
C=CCn1c(CCc2ccccc2)nnc1SCC(N)=O,-5,3,3203,1.2,-2,6,-3
NC(N)=NN=Cc1cn(-c2ccccc2)nc1-c1cccs1,nt,6,nt,5.1,nt,18,11
Cn1c(=O)c2c(O)cc(=O)n(-c3ccccc3)c2n(C)c1=O,-23,6,2878,-0.6,1,nt,nt
Cc1cc2ncn(C(=O)c3ccc4c(c3)OCO4)c2cc1C,-6,-13,4954,2.4,-1,nt,nt
CCCNC(=O)COc1coc(CN2CCN(c3cccc(Cl)c3)CC2)cc1=O,-6,2,4368,0.2,-1,-1,-1
COc1cccc(CN2CC(C(=O)N(C)Cc3[nH]c4ccccc4c3C)CCC2=O)c1 (stereo not given),-22,-7,6673,3.9,-9,12,4
CN1CCN(C(=O)CCn2nc(-c3ccccc3)c3ccccc3c2=O)CC1,-10,0,3028,4.5,-6,9,16
CCN1C(=O)N[C@@H](c2ccco2)C(C(=O)OC)=C1C,1,nt,3758,nt,-12,nt,nt
COC(=O)c1sc(NC(=O)CSc2nc3cccnc3n2C2CCCCC2)nc1C,-10,4,4218,3.8,-5,0,11
CC1(C)CC(=O)C=C(C(=O)N2CCCC(C(=O)c3cccc(C(F)(F)F)c3)C2)O1 (stereo not given),-18,8,4278,4.6,-4,-1,-1
O=C(NC1CC2CCCC(C1)N2C(=O)Nc1ccc(F)cc1)c1ccccc1 (stereo not given),-3,-1,3859,5.1,-9,11,2
COc1ccc(NC(=O)Nc2ccccc2F)cc1,-65,1,11185,-3.5,20,-1,3
Cc1cccc(NC(=S)NC(=O)c2oc3ccccc3c2C)n1,-33,3,5268,1.3,2,-7,9
Oc1ccc(CCNc2ncnc3ccc(Cl)cc23)cc1,8,nt,5929,nt,10,nt,nt

Carrying on.
Structure,PrP UTR inh,ugtP null kill,Bead autofluor,RN4220 kill,BJeLR lethal,Mtb hypoxia rep,Mtb hypoxia rep growth
O=C(COC(=O)CCc1ccc(S(=O)(=O)N2CCOCC2)cc1)Nc1ccc(Cl)cn1,-14,1,3018,0.2,0,-87,-22
Cn1c(SCC(=O)NC(=O)NCc2ccco2)nnc1-c1ccccc1,-9,5,2712,9.0,0,nt,nt
CCn1cc(C(=O)NCc2ccco2)c(=O)c2cc(F)c(N3CCN(C(=O)c4ccco4)CC3)cc21,-75,28,3012,22,3,nt,nt
C#Cc1ccc(C2C=C(C(=O)NC3CC3)OC(OCCCCO)C2)cc1 (stereo not given),nt,-2,nt,4.7,nt,1,9
COc1cccc(C2=NN(C(=O)c3ccccc3)C(O)(C(F)(F)F)C2)c1 (stereo not given),-7,-4,4472,24,-12,-3,7
Brc1ccccc1C1CC(c2ccccc2)=Nc2ccccc2N1 (stereo not given),-30,6,2694,2.8,2,9,10
O=C(CN1CCC(N2CCCCC2)CC1)N1CCCc2ccccc21,-29,-2,4594,-1.8,-18,8,9
O=S(=O)(Nc1ccc(S(=O)(=O)Nc2nccs2)cc1)c1ccc2c(c1)OCCO2,-17,38,16416*,2.9,-2,nt,nt
CCc1noc(C)c1C(=O)Nc1nnc(C2CCCCC2)s1,nt,-1,nt,2.6,4,1,13
Cc1ccc(C)c(N2CCN(C(=O)c3cc4sccc4n3C)CC2)c1,-19,-9,22451*,3.8,0,11,11
Cc1cc(NC(=O)C2CC(c3ccccc3Cl)=NO2)no1 (stereo not given),-13,-4,4469,-2.8,0,nt,nt
Cc1ccc(-n2c(CSc3nc(C)cc(C)n3)nnc2SCC(=O)Nc2nccs2)cc1,13,3,4357,0.8,-7,3,8
CC(C)Cc1cc(CNC(=O)C2CCC(=O)N(Cc3cccc(C(F)(F)F)c3)C2)on1 (stereo not given),-2,0,5507,-1.7,2,1,0
O=C(NN=Cc1ccc(OC(F)F)cc1)C1=COCCO1,nt,0,nt,-2.3,nt,-12,-12
COc1ccc(C(=O)COC(=O)c2ccc3c(c2)OCCO3)c(OC)c1,-29,0,6094,1.2,nt,-7,1
O=C(CC(=O)c1cccc([N+](=O)[O-])c1)Nc1ccccc1Cl,-15,-10,2216,-0.8,-1,5,2
CCOC(=O)CC(=O)CSc1nc2sc(C)cc2c(=O)n1Cc1ccco1,-6,-5,10518,6.1,1,2,2
Cc1nn(C)c(C(=O)N2CCN(C(=O)c3ccco3)CC2)c1Br,-11,7,2196,5.9,-5,5,-1
COc1cc(C(=O)NN=Cc2cn(Cc3cccc(F)c3)c3ccccc23)ccc1O,nt,-7,nt,-2.5,nt,2,7
CC(C)Oc1cccc(C(=O)NN=Cc2coc3ccccc3c2=O)c1,nt,2,nt,4.4,nt,7,6
O=C(NNC(=O)C1CCCN(S(=O)(=O)c2ccc3ccccc3c2)C1)C1CC1 (stereo not given),-36,7,4397,3.1,3,1,3
CCCCNC(=S)N(C)N=Cc1sc(N2CCCCC2)nc1-c1cccs1,nt,-3,nt,-1.8,nt,-1,6
O=C(/C=C/c1ccccc1)NC1CCCc2ccccc21 (stereo not given),nt,9,nt,2.9,2,19,5
O=C(O)c1cnn(-c2nc(-c3ccc(Cl)c(Cl)c3)cs2)c1C(F)(F)F,-5,48,3678,8.7,-9,11,5
O=C(NC1CCCC1)c1cccc2c1C(=O)c1ccc(N3CCCCC3)cc1S2(=O)=O,-17,7,3182,2.7,nt,-3,6
CC(Oc1cccc(Cl)c1)C(=O)N(C)CC(=O)Nc1ccc(N2CCOCC2)cc1 (stereo not given),1,1,nt,-0.2,-2,1,12
CC(C)Oc1cccc(C(=O)C2CCCN(C(=O)c3cc(C(F)(F)F)[nH]n3)C2)c1 (stereo not given),-14,-5,5287,1.2,2,1,9
Cc1cc(=O)oc2c(C(=O)c3ccccc3)c(OCC(N)=O)ccc12,nt,0,4634,3.6,0,-3,1
COc1ccc(N(CC(=O)NC2CCCC2)C(=O)CCC(=O)Nc2cc(C)on2)cc1OC,-8,18,5472,2.9,0,6,5
COc1ccccc1OCCN1CSC(=S)N(C)C1,-7,11,2446,23,2,16,12
COc1ccccc1-c1nnc(SCC(=O)NC2CCS(=O)(=O)C2)n1N (stereo not given),-12,11,4378,4.8,-2,13,15
CSc1cccc2sc(NC(=O)C3=COCCO3)nc12,-53,7,4860,3.7,4,8,4
O=C(CCN1C(=O)C2CC=C(Cl)CC2C1=O)NC1CCCCC1 (stereo not given),-25,6,9511,4.6,3,2,1
COc1ccc(C(C)=O)cc1CSc1nc2cc(Cl)ccc2o1,57*,9,2392,2.8,-1,nt,nt
CC(C)(C)C(=O)NC(=S)Nc1ccccc1C(N)=O,-1,2,2623,4.4,-3,-4,-6
CC(=O)N1CCc2c(sc(NC(=O)CS(=O)(=O)c3ccc(F)cc3)c2C(N)=O)C1,-17,0,5563,5.2,-8,1,0

Looked up by structure from the entries so far, two records:
Structure,PrP UTR inh,ugtP null kill,Bead autofluor,RN4220 kill,BJeLR lethal,Mtb hypoxia rep,Mtb hypoxia rep growth
Cc1ccc(-n2c(CSc3nc(C)cc(C)n3)nnc2SCC(=O)Nc2nccs2)cc1,13,3,4357,0.8,-7,3,8
COc1ccc(NC(=O)Nc2ccccc2F)cc1,-65,1,11185,-3.5,20,-1,3
